# Yeast UUG start: modulators of start codon recognition fidelity in yeast; S. cerevisiae UUG-firefly luciferase reporter, luminescence/redox ratio; activity score, % at 18.7 µM; 0.13% of 350,000 active;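 active = replicate mean at a twofold rise or more, about +100% in these data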;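 also: firefly luciferase made from a UUG start codon reports start codon fidelity; reporter light over untreated wells divided by growth signal over untreated wells; some hits fall short of that in this replicate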
# Env fusion inh: inhibitors of HIV Env-mediated cell fusion. inhibition, % at 12.3 µM. 1.1% of 360,000 active. HeLa-JRFL Env/CEM21 cell fusion, luciferase;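 active = mean replicate inhibition score of at least 50 and every replicate individually at or above 50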;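 also: 0% = plate neutral controls and 100% = maraviroc near 300 nM; one replicate is shown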
# Starred values were filed as active, the others as inactive; [ ] = dose if it differs, or a comment. These rows are one share of the data. The share of hits here may be higher or lower than overall.
Env fusion inh,Yeast UUG start,Compound
-122[16.7 µM],-7,C[C@@H]1CN([C@@H](C)CO)C(=O)c2cc(NS(=O)(=O)c3ccc(Cl)cc3)ccc2O[C@@H](C)CCCCO[C@H]1CN(C)C(=O)Cc1ccccc1
0[16.7 µM],4,CC(C)NC(=O)N(C)C[C@H]1OCCCC[C@@H](C)Oc2ccc(NS(=O)(=O)c3cn(C)cn3)cc2C(=O)N([C@H](C)CO)C[C@H]1C
4[16.7 µM],81,O=C(Nc1ccc2c(c1)[C@@H]1C[C@@H](CC(=O)N3CCOCC3)O[C@@H](CO)[C@@H]1O2)NC1CCCCC1
-2[16.7 µM],-15,O=C(C[C@H]1C[C@H]2c3cc(NC(=O)Nc4ccc(F)cc4)ccc3O[C@H]2[C@H](CO)O1)NC1CCCCC1
13[16.7 µM],-5,C[C@H]1CN([C@@H](C)CO)C(=O)Cc2cc(NS(=O)(=O)c3ccc(F)cc3)ccc2O[C@@H]1CN(C)C
-18[16.7 µM],-4,CC(C)C#Cc1ccc2c(c1)O[C@@H](CN(C)CC1CCOCC1)[C@@H](C)CN([C@H](C)CO)S2(=O)=O
0[16.7 µM],6,Cc1noc(C)c1NC(=O)N(C)C[C@@H]1OCCCC[C@H](C)Oc2ccc(NC(=O)Nc3ccc(F)cc3)cc2C(=O)N([C@@H](C)CO)C[C@H]1C
25[16.7 µM],-2,COc1ccccc1-c1cn(CC[C@H]2CC[C@H](NC(=O)C3CCOCC3)[C@@H](CO)O2)nn1
6[16.7 µM],-8,C[C@@H]1CCCCO[C@@H](CN(C)S(=O)(=O)c2ccc(Cl)cc2)[C@H](C)CN([C@@H](C)CO)C(=O)c2cc(NC(=O)c3ccncc3)ccc2O1
-6[16.7 µM],-15,Cc1ccccc1NC(=O)Nc1ccc2c(c1)C(=O)N(C)[C@@H]1CC[C@H](CC(=O)O)O[C@@H]1CO2
-24[16.7 µM],27,CN1C(=O)c2cc(NC(=O)c3ccc(F)cc3)ccc2OC[C@@H]2O[C@@H](CC(=O)NC3CCC3)CC[C@H]21
8[16.7 µM],22,CN(C)C(=O)C[C@H]1CC[C@@H]2[C@H](COc3ccc(NC(=O)C4CCCCC4)cc3C(=O)N2C)O1
17[16.7 µM],4,COc1ccc(CN(C)C[C@H]2Oc3ccc(NC(=O)Nc4ccc(OC)cc4)cc3C(=O)N([C@H](C)CO)C[C@@H]2C)cc1
1[16.7 µM],4,O=C(C[C@H]1C[C@@H]2c3cc(NC(=O)NC4CCCC4)ccc3O[C@@H]2[C@@H](CO)O1)NCc1cccc(F)c1
39[16.7 µM],28,COc1ccc(S(=O)(=O)Nc2ccc3c(c2)C(=O)N([C@H](C)CO)C[C@H](C)[C@@H](CN(C)Cc2ccc(Cl)c(Cl)c2)OCCCC[C@H](C)O3)cc1
-10[16.7 µM],-3,COc1cccc(-c2cnc3c(c2)C(=O)N([C@H](C)CO)C[C@H](C)[C@@H](CN(C)C(C)=O)O3)c1
15[16.7 µM],5,Cc1noc(C)c1S(=O)(=O)N(C)C[C@H]1Oc2ccc(NS(=O)(=O)c3cn(C)cn3)cc2CC(=O)N([C@H](C)CO)C[C@@H]1C
-12[16.7 µM],-7,COc1ccc(CNC(=O)C[C@@H]2C=C[C@@H](NC(=O)c3cccc(F)c3)[C@@H](CO)O2)cc1
17[16.7 µM],4,Cc1noc(C)c1NC(=O)N(C)C[C@@H]1OCCCC[C@@H](C)Oc2ccc(NS(=O)(=O)c3ccc(F)cc3)cc2C(=O)N([C@H](C)CO)C[C@H]1C
-8[16.7 µM],12,COc1ccc(S(=O)(=O)N(C)C[C@@H]2Oc3ccc(NC(=O)C4CCCCC4)cc3C(=O)N([C@@H](C)CO)C[C@H]2C)cc1
3[16.7 µM],4,Cc1ccc(S(=O)(=O)Nc2ccc3c(c2)C(=O)N([C@@H](C)CO)C[C@H](C)[C@H](CN(C)S(=O)(=O)c2cn(C)cn2)O3)cc1
-68[16.7 µM],-5,C[C@H](CO)N1C[C@H](C)[C@H](CN(C)C(=O)Cc2ccccc2)OCCCC[C@H](C)Oc2ccc(NS(=O)(=O)c3ccccc3)cc2C1=O
36[16.7 µM],-2,COc1cccc(C#Cc2ccc3c(c2)O[C@H](CN(C)C(C)=O)[C@H](C)CN([C@H](C)CO)S3(=O)=O)c1
-7[16.7 µM],-10,O=C(C[C@H]1CC[C@@H](NC(=O)Nc2cc(F)ccc2F)[C@H](CO)O1)Nc1ccccc1
-10[16.7 µM],-4,COc1ccccc1S(=O)(=O)N[C@H]1C=C[C@@H](CC(=O)N2CCN(C)CC2)O[C@@H]1CO
16[16.7 µM],-20,C[C@H](CO)N1C[C@H](C)[C@H](CN(C)C(=O)Nc2ccc(F)cc2)Oc2c(NC(=O)Nc3cccc4ccccc34)cccc2C1=O
-14[16.7 µM],-9,C[C@H](CO)N1C[C@H](C)[C@@H](CN(C)C(=O)Nc2cccc3ccccc23)Oc2c(NC(=O)C3CC3)cccc2C1=O
-2[16.7 µM],-4,CO[C@H]1CN(C)C(=O)c2ccc(NC(=O)Nc3cccc(Cl)c3)cc2OC[C@H](C)NC[C@H]1C
20[16.7 µM],1,C[C@@H]1CN([C@@H](C)CO)S(=O)(=O)c2ccc(C#Cc3ccc(F)cc3)cc2O[C@@H]1CN(C)C(=O)NC1CCCCC1
-79[16.7 µM],12,C[C@H](CO)N1C[C@H](C)[C@@H](CN(C)C(=O)C2CCCCC2)OCCCC[C@H](C)Oc2ccc(NC(=O)c3ccncc3)cc2C1=O

# Compound profiles, from the list above. Values in the order: Env fusion inh, Yeast UUG start
# COc1cccc(C#Cc2ccc3c(c2)O[C@H](CN(C)C(C)=O)[C@H](C)CN([C@H](C)CO)S3(=O)=O)c1 is listed with 36[16.7 µM], -2
# C[C@@H]1CN([C@@H](C)CO)C(=O)c2cc(NS(=O)(=O)c3ccc(Cl)cc3)ccc2O[C@@H](C)CCCCO[C@H]1CN(C)C(=O)Cc1ccccc1 is listed with -122[16.7 µM], -7

# Remaining list, next part
Env fusion inh,Yeast UUG start,Compound
1[16.7 µM],2,O=C(CN1CCOCC1)N[C@@H]1CC[C@@H](CCNC(=O)Nc2cc(F)ccc2F)O[C@H]1CO
-13[16.7 µM],-10,O=C(C[C@@H]1CC[C@@H](NC(=O)CC2CC2)[C@@H](CO)O1)NCC(F)(F)F
-8[16.7 µM],-11,O=C(C[C@@H]1C[C@H]2c3cc(NC(=O)NC4CCCC4)ccc3O[C@H]2[C@@H](CO)O1)NCc1ccc(Oc2ccccc2)cc1
21[16.7 µM],-12,C[C@@H]1CCCCO[C@@H](CN(C)S(=O)(=O)c2ccccc2)[C@@H](C)CN([C@H](C)CO)C(=O)c2cc(NC(=O)Cc3ccccc3)ccc2O1
8[16.7 µM],1,CCCNC(=O)C[C@@H]1CC[C@H]2[C@H](COc3ccc(NC(=O)c4ccccc4)cc3C(=O)N2C)O1
12[16.7 µM],-2,Cc1ccc(S(=O)(=O)Nc2cccc3c2O[C@@H](CN(C)Cc2ccc(C(=O)O)cc2)[C@@H](C)CN([C@@H](C)CO)C3=O)cc1
-4[16.7 µM],-14,Cc1noc(C)c1NC(=O)N(C)C[C@H]1Oc2c(cccc2N(C)C)C(=O)N([C@@H](C)CO)C[C@@H]1C
19[16.7 µM],-6,C[C@@H]1CN([C@@H](C)CO)C(=O)c2cc(Br)cnc2O[C@H]1CN(C)CC1CCOCC1
3[16.7 µM],-14,C[C@H](CO)N1C[C@H](C)[C@H](CN(C)S(=O)(=O)c2cn(C)cn2)Oc2ccc(N(C)C)cc2CC1=O
49[16.7 µM],3,COc1ccc(C#Cc2cnc3c(c2)C(=O)N([C@@H](C)CO)C[C@H](C)[C@H](CN(C)C(=O)Nc2cccc(OC)c2)O3)cc1
7[16.7 µM],13,C[C@@H]1CN([C@@H](C)CO)S(=O)(=O)c2ccc(C#CC3CC3)cc2O[C@H]1CN(C)S(C)(=O)=O
12[16.7 µM],4,CCNC(=O)Nc1ccc2c(c1)C(=O)N(C)[C@@H]1CC[C@H](CC(=O)NCc3ccccc3F)O[C@H]1CO2
12[16.7 µM],-11,Cc1noc(C)c1NC(=O)N(C)C[C@H]1Oc2ccc(NC(=O)C3CC3)cc2C(=O)N([C@@H](C)CO)C[C@H]1C
-27[16.7 µM],12,C[C@H](CO)N1C[C@H](C)[C@@H](CN(C)Cc2ccccc2C(=O)O)Oc2ncc(C3=CCCC3)cc2C1=O
11[16.7 µM],-9,C[C@H]1CN([C@@H](C)CO)S(=O)(=O)c2ccc(-c3ccc(C(=O)N(C)C)cc3)cc2O[C@H]1CN(C)C
40[16.7 µM],11,COc1ccc(CCNC(=O)[C@@H]2c3ccccc3C(=O)N(CC34CC5CC(CC(C5)C3)C4)[C@H]2c2ccc(CO)cc2)cc1
13[16.7 µM],-8,C[C@H](CO)N1C[C@H](C)[C@@H](CN(C)Cc2ccc(C(F)(F)F)cc2)Oc2c(NS(C)(=O)=O)cccc2C1=O
-10[16.7 µM],4,C[C@@H]1CCCCO[C@H](CN(C)C)[C@H](C)CN([C@H](C)CO)C(=O)c2cc(NC(=O)Nc3cccc4ccccc34)ccc2O1
-10[16.7 µM],-6,C[C@H]1CN([C@@H](C)CO)C(=O)c2cc(-c3ccc(C#N)cc3)cnc2O[C@H]1CN(C)Cc1ccncc1
3[16.7 µM],3,CC(C)(C)[C@@H]1C=C(C(=O)N2CCCCCCC2)O[C@H](OCc2ccc(CO)cc2)C1
34[16.7 µM],2,C[C@@H]1CN([C@@H](C)CO)S(=O)(=O)c2ccc(-c3ccccc3)cc2O[C@@H]1CN(C)C(=O)c1ccccc1F
4[16.7 µM],12,C[C@@H]1CN([C@@H](C)CO)S(=O)(=O)c2ccc(C#CC3CC3)cc2O[C@@H]1CN(C)C(=O)C1CCCCC1
-12[16.7 µM],70,OCc1ccc(-c2cc[n+](Cc3cc4c(cc3Br)OCO4)cc2)cc1
-5[16.7 µM],5,C[C@@H]1CN([C@@H](C)CO)C(=O)Cc2cc(NC(=O)Nc3ccc4c(c3)OCO4)ccc2O[C@@H]1CN(C)CC1CCCCC1
7[16.7 µM],-9,COCCCNC(=O)[C@]1(Cc2ccccc2N=[N+]=[N-])N=C(c2ccc(OCCCO)cc2)O[C@@H]1c1ccccc1N=[N+]=[N-]
2[16.7 µM],0,COCC(=O)Nc1ccc2c(c1)OC[C@@H](C)N(C(C)=O)C[C@@H](C)[C@H](OC)CN(C)C2=O
0[16.7 µM],5,Cc1noc(C)c1S(=O)(=O)Nc1ccc2c(c1)CC(=O)N([C@H](C)CO)C[C@H](C)[C@H](CN(C)C(=O)Nc1ccc3c(c1)OCO3)O2
2[16.7 µM],0,CC(=O)N(C)C[C@H]1Oc2ncc(C#Cc3ccccc3)cc2C(=O)N([C@@H](C)CO)C[C@@H]1C
-1[16.7 µM],-12,CCCNC(=O)N(C)C[C@@H]1Oc2cc(-c3ccncc3)ccc2S(=O)(=O)N([C@@H](C)CO)C[C@H]1C
-25[16.7 µM],30,Cc1noc(C)c1NC(=O)N(C)C[C@H]1Oc2ccc(NC(=O)CCN3CCOCC3)cc2CC(=O)N([C@@H](C)CO)C[C@H]1C
-20[16.7 µM],-14,COc1cccc(NC(=O)N(C)C[C@@H]2Oc3cc(C#Cc4ccc(F)cc4)ccc3S(=O)(=O)N([C@H](C)CO)C[C@H]2C)c1
-14[16.7 µM],8,C[C@@H]1CN([C@@H](C)CO)C(=O)c2cc(NC(=O)C3CCCCC3)ccc2O[C@@H](C)CCCCO[C@@H]1CN(C)C(=O)NC1CCCCC1
-54[16.7 µM],-17,C[C@@H]1CCCCO[C@@H](CN(C)C(=O)C2CCCCC2)[C@@H](C)CN([C@@H](C)CO)C(=O)c2cc(NS(=O)(=O)c3ccccc3)ccc2O1
26[16.7 µM],15,C[C@H]1CCCCO[C@@H](CN(C)C(=O)CCCN(C)C)[C@@H](C)CN([C@@H](C)CO)C(=O)c2cc(NC(=O)Nc3ccc(F)cc3)ccc2O1
0[16.7 µM],-6,O=C(C[C@@H]1CC[C@H](NC(=O)C2CCC2)[C@H](CO)O1)NC1CCCCC1
11[16.7 µM],-10,O=C(C[C@@H]1C[C@@H]2c3cc(NC(=O)NC4CCCC4)ccc3O[C@@H]2[C@H](CO)O1)NC1CCCC1

# Filtered by structure, the entries above with an aryl methoxy group (11)
Env fusion inh,Yeast UUG start,Compound
25[16.7 µM],-2,COc1ccccc1-c1cn(CC[C@H]2CC[C@H](NC(=O)C3CCOCC3)[C@@H](CO)O2)nn1
17[16.7 µM],4,COc1ccc(CN(C)C[C@H]2Oc3ccc(NC(=O)Nc4ccc(OC)cc4)cc3C(=O)N([C@H](C)CO)C[C@@H]2C)cc1
39[16.7 µM],28,COc1ccc(S(=O)(=O)Nc2ccc3c(c2)C(=O)N([C@H](C)CO)C[C@H](C)[C@@H](CN(C)Cc2ccc(Cl)c(Cl)c2)OCCCC[C@H](C)O3)cc1
-10[16.7 µM],-3,COc1cccc(-c2cnc3c(c2)C(=O)N([C@H](C)CO)C[C@H](C)[C@@H](CN(C)C(C)=O)O3)c1
-12[16.7 µM],-7,COc1ccc(CNC(=O)C[C@@H]2C=C[C@@H](NC(=O)c3cccc(F)c3)[C@@H](CO)O2)cc1
-8[16.7 µM],12,COc1ccc(S(=O)(=O)N(C)C[C@@H]2Oc3ccc(NC(=O)C4CCCCC4)cc3C(=O)N([C@@H](C)CO)C[C@H]2C)cc1
36[16.7 µM],-2,COc1cccc(C#Cc2ccc3c(c2)O[C@H](CN(C)C(C)=O)[C@H](C)CN([C@H](C)CO)S3(=O)=O)c1
-10[16.7 µM],-4,COc1ccccc1S(=O)(=O)N[C@H]1C=C[C@@H](CC(=O)N2CCN(C)CC2)O[C@@H]1CO
49[16.7 µM],3,COc1ccc(C#Cc2cnc3c(c2)C(=O)N([C@@H](C)CO)C[C@H](C)[C@H](CN(C)C(=O)Nc2cccc(OC)c2)O3)cc1
40[16.7 µM],11,COc1ccc(CCNC(=O)[C@@H]2c3ccccc3C(=O)N(CC34CC5CC(CC(C5)C3)C4)[C@H]2c2ccc(CO)cc2)cc1
-20[16.7 µM],-14,COc1cccc(NC(=O)N(C)C[C@@H]2Oc3cc(C#Cc4ccc(F)cc4)ccc3S(=O)(=O)N([C@H](C)CO)C[C@H]2C)c1

# Screens deposited in PubChem BioAssay by Broad Institute.
